Rango-impB inh: prevents formation of the Rango-importin beta complex. Rango CFP/YFP FRET sensor + importin beta, 45 min. Potency, µM (titrated, usually from 92.2 µM), without a hit: top-dose inhibition of complex formation. hit rate 0.031% among 340,000. AID 540263; active = rising FRET ratio curve, often small or poorly fitted; inconclusive = mostly compound fluorescence or quenching in the first reads; inactive = flat curves in all reads;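 note: potency is the fitted concentration of half-maximal effect; 0% = DMSO wells and 100% = buffer wells lacking importin beta; nearly all actives have a fitted effect of over 15% in size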
Target sequence (Q14974 whole entry, looked up): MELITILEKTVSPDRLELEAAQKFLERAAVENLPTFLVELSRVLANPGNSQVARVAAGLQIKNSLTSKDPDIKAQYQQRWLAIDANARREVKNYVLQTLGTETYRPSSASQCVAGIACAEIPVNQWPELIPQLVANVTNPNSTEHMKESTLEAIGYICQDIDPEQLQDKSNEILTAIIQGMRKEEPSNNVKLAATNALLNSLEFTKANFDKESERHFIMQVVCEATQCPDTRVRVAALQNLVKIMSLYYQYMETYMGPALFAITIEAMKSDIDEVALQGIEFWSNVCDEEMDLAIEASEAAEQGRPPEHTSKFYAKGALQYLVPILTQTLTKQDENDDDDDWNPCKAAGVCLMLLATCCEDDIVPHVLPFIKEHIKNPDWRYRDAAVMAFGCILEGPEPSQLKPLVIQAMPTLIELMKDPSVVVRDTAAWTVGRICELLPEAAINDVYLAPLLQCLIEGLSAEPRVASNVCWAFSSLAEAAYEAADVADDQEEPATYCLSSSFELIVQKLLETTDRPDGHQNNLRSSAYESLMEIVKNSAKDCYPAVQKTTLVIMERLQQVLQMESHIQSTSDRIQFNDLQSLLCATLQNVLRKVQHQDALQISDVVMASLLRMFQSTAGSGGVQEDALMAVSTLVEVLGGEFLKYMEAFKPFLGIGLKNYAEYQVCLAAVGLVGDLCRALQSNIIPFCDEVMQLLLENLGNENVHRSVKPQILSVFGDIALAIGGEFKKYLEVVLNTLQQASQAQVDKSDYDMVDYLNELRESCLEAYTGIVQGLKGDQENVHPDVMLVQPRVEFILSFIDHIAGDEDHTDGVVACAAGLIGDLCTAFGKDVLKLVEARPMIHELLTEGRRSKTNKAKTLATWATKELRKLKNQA
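FRET biosensor Rango (snurportin 1 IBB between N-terminal EYFP and C-terminal Cerulean), 50 nM in PBS/1 mM DTT/0.02% Tween-20/0.1% BSA, preincubated 5 min RT with compound; 0.125 microM importin beta added, 45 min RT, CFP/YFP FRET ratio read.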
miR-21 FLuc: raises the signal of a miR-21 reporter; Potency, µM (top dose mostly 38.3 µM), for the others: top-dose reporter change, positive = more light; AID 2288; 340,000 tested, under 10 active; HeLa miR-21 FLuc reporter, luciferase, 48 h; active = well fitted rising curve with a large enough effect; inconclusive = small, poorly fitted or top-dose-only effect; inactive = no such curve, though single readings can be large or run the other way;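 note: % of control where 0% means no effect; miR-21 action dims this reporter so a rising signal means less miR-21 action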
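Luminescence from a firefly luciferase reporter carrying a miR-21 binding site downstream, stably expressed under a CMV promoter in HeLa cells that make miR-21 endogenously, reports miRNA modulation after 48 h compound exposure up to approximately 40uM final.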
GLA inh pH 4.5: inhibitors of human alpha-galactosidase A at pH 4.5. 230,000 tested, under 10 active. purified enzyme, 4-MU-alpha-Gal fluorescence, pH 4.5. activity change, negative = inhibition, % at 105 µM; inconclusive = small, poorly fitted or top-dose-only inhibition, or a rising curve; inactive = flat fitted curve, though single readings scatter; no compound was filed as active;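 note: 0% = full activity with enzyme and -100% = basal without enzyme; dose as in the result columns while the protocol names 77 µM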
Rango dissoc inh: inhibitors of RanGTP-induced Rango-importin beta complex dissociation. Biochemical FRET Rango-importin beta, RanGTP-induced dissociation. Potency, µM (highest dose often 46.1 µM), for inactives: at the highest dose activity change, negative = inhibition. hit rate 0.071% among 340,000; active means falling FRET ratio curve, often poorly fitted, with flat reads before Ran was added; inconclusive means other falling curves, or compound fluorescence or quenching; inactive means flat or rising ratio curve;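 note: potency is the fitted concentration of half-maximal effect; % of control where 0% means no effect; nearly all actives have a fitted effect of over 45% in size; -100% = wells without RanGTP and RCC1; the record marks most hits as doubtful in a second field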
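Compounds preincubate 5 min with complex of recombinant Rango and importin beta in PBS with 1 mM DTT. Ran (0.6 uM) loaded with 2 mM GTP plus 0.2 uM RCC1 starts dissociation; FRET is recorded 45 min later.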
Starred values were filed as active, the others as inactive; u = inconclusive; x = no result given; & = joins results of further samples. A portion of the library (hit frequency here may not be typical).

SMILES	Rango-impB inh	miR-21 FLuc	GLA inh pH 4.5	Rango dissoc inh
Cc1ccc(NC(=O)Nc2cccc(C)n2)c(C)c1	-1.2%	-22%	4	0%
O=[N+]([O-])c1cccc(/C=N/Nc2nnc(-c3ccccc3)c(-c3ccccc3)n2)c1	-2.6%	-7%	3	-3%
Cc1cccc(NC(=S)NCc2ccccn2)c1	1.9%	-16%	-1	4%
Cc1cc(C)nc(SCCC(=O)Nc2ccccc2C)n1	1.3%	-3%	-5	4%
O=C1CSC(c2ccncc2)N1Cc1ccccc1 (stereo not given)	-0.1%	2%	-3	9%
CCc1ccc2oc(-c3ccc(N)cc3)nc2c1	0.3%	-7%	-7	-3%
COC(=O)c1c(NC(=O)CCCC(=O)O)sc2c1CCCCC2	6.4%	15%	8	-12%
Cc1nc(-c2ccccn2)nc(N2CCOCC2)c1Cl	-0.3%	8%	2	0%
CC(=O)Nc1ccc(Nc2nc3ccccc3n3cnnc23)cc1	-2.2%	-6%	x	14%
CN(Cc1ccccc1NCC(=O)Nc1ccccc1C#N)C1CCCCC1	-2.3%	-9%	-15	-11%
CCCSc1nc(C)c(CC(=O)OCC)c(=O)[nH]1	-3.3%	2%	-5	14%
Cn1c(N)c(C(=O)COC(=O)CCCOc2ccc(Cl)cc2Cl)c(=O)n(C)c1=O	5.3%	-1%	0	7%
CCOC(=O)N1CCN(C(=O)c2ccc(S(=O)(=O)Nc3ccccc3)cc2)CC1	1.7%	x	x	8%
CC(NC(=S)Nc1ccc(F)cc1)C(c1cccs1)N1CCOCC1 (stereo not given)	1.1%	-3%	7	-22%
Cc1ccc(S(=O)(=O)NCC(=O)OCC(=O)NCc2ccc3c(c2)OCO3)cc1	-0.1%	x	x	1%
CC(C)c1ccc(/C=C2\C(=N)N3N=C(CC(=O)N4CCCCC4)SC3=NC2=O)cc1	u	-2%	x	-15%
OCC[C@H]1C[C@@H](O)[C@H](O)[C@]2(OCCc3ccccc32)O1	3.1%	x	x	2%
Fc1ccc(OCc2nn3c(Cn4nnc5ccccc54)nnc3s2)cc1	-1.4%	-9%	2	-11%
O=C(CC(Nc1ccccc1Cl)C(=O)OCC(=O)c1cccs1)c1ccccc1 (stereo not given)	0.2%	-43%	0	10%
CC(=O)NC1Sc2ccccc2N=C1c1ccccc1 (stereo not given)	0.0%	-46%	-3	8%
Cc1c(C(=O)N2CCN(c3ncccn3)CC2)oc2c(Cl)cccc12	0.1%	x	x	1%
O=C(NCc1ccc(Cl)cc1)C(=O)NCC(c1cccnc1)N1CCN(c2ccc(F)cc2)CC1 (stereo not given)	-0.2%	27%	4	-13%
CC(=O)c1cccc(NC(=O)COc2cc(C)on2)c1	-2.4%	x	x	-10%
NC1=NC2(CCN(Cc3ccccc3)CC2)n2c(nc3ccccc32)N1	-0.4%	6%	-9	-9%
Cc1ccc(C(=O)NC(C)c2ccc(-n3ccnc3)cc2)c(C)c1 (stereo not given)	2.0%	-11%	x	11%

Some of these compounds in order of formula weight, ascending.
SMILES	Rango-impB inh	miR-21 FLuc	GLA inh pH 4.5	Rango dissoc inh
CCc1ccc2oc(-c3ccc(N)cc3)nc2c1	0.3%	-7%	-7	-3%
CCCSc1nc(C)c(CC(=O)OCC)c(=O)[nH]1	-3.3%	2%	-5	14%
OCC[C@H]1C[C@@H](O)[C@H](O)[C@]2(OCCc3ccccc32)O1	3.1%	x	x	2%
Cc1ccc(S(=O)(=O)NCC(=O)OCC(=O)NCc2ccc3c(c2)OCO3)cc1	-0.1%	x	x	1%
O=C(CC(Nc1ccccc1Cl)C(=O)OCC(=O)c1cccs1)c1ccccc1 (stereo not given)	0.2%	-43%	0	10%

The results go on.
SMILES	Rango-impB inh	miR-21 FLuc	GLA inh pH 4.5	Rango dissoc inh
CCOCCCNC(=O)c1cc(Sc2ccc(F)cc2)nc2ccccc12	-2.5%	2%	4	24%
C[C@H](CO)N1C[C@H](C)[C@@H](CN(C)S(C)(=O)=O)Oc2ccc(NS(=O)(=O)c3ccccc3)cc2C1=O	0.1%	x	x	-1%
CCCC(=O)N(CCN1CCOCC1)c1nc2c(F)cc(F)cc2s1	1.3%	-52%	x	0%
CCOc1ccccc1CNC(=O)c1cc2oc3ccccc3c2n1C	2.9%	19%	6	-10%
CN(CCc1ccccn1)C(=O)CCc1nnc(CCCc2ccccc2)o1	-3.8%	-56%	3	9%
CC(Oc1ccccc1)C(=O)Nc1nc(-c2ccncc2)cs1 (stereo not given)	3.2%	x	x	-1%
Cc1ccc(NC(=O)CN(C)C(=O)COc2ncnc3ccc(Br)cc23)cc1	0.2%	x	x	7%
O=C(NCc1ccccc1)c1cccc2c1C(=O)c1ccc(/C=C/c3ccccc3)cc1S2(=O)=O	u	x	x	u
COc1c2ccoc2cc2oc(C)cc(=O)c12	2.4%	x	3	-16%
CCN(CC)S(=O)(=O)c1cccc(NC(=O)CN2C(=O)NC3(CCOc4ccccc43)C2=O)c1 (stereo not given)	-1.2%	x	x	-5%
Brc1ccc(-c2csc(N3CCC(c4ccccc4)C3)n2)cc1 (stereo not given)	-4.9%	-9%	-2	0%
COc1ccc(NC(=O)CN(C)C(=O)CNC(=O)Cc2cccc3ccccc23)cc1	3.7%	-4%	x	u
CCc1ccccc1NC(=O)c1ccc(NCCc2ccccc2)c([N+](=O)[O-])c1	4.3%	-6%	-6	u
Cc1ccc(S(=O)(=O)N2CCC(C(=O)N3CCCCCCC3)CC2)cc1	4.2%	x	x	13%
O=C(N=C1c2ccccc2CN1c1ccc(F)c(F)c1)c1cccnc1	0.0%	-40%	2	-2%
Nn1c(Cc2ccccc2F)nnc1SCC(=O)N1CC(=O)Nc2ccccc21	0.3%	-3%	-3	-17%
C=CCn1c(SCC(=O)N2CCOCC2)nc(O)cc1=O	-1.9%	-6%	-8	11%
COc1ccc2c(c1)[N+](C)(C)C(C)(C)C=C2C	-2.4%	0%	-9	-14%
Cc1cccc(C)c1NC(=O)CCCSc1nnc(-c2ccc(F)cc2)n1-c1ccccc1	-5.8%	16%	-7	16%
CCCn1c(SCc2ccccc2)nc2c1c(=O)[nH]c(=O)n2C	2.3%	-21%	-19	3%
CC(=O)Nc1ccc(C(=O)CSc2nnnn2C)cc1	-2.1%	-5%	8	-12%
COc1ccc(/C=C2\SC(=S)N(CCC(=O)NC3C=CS(=O)(=O)C3)C2=O)cc1 (stereo not given)	-2.2%	24%	x	1%
COC(=O)C1=C(C(=O)OC)[C@]2([C@H]3CC=CCN[C@@H](Cc4ccccc4)C(=O)N3Cc3ccccc3)C=C[C@H]1O2	-5.3%	x	x	-6%
O=C(CC(=O)N/N=C/c1c(Cl)cccc1Cl)NCc1cccnc1	0.9%	-6%	x	-3%
Cc1cc(C)cc(NC(=O)COC(=O)[C@@H](NC(=O)c2ccco2)C(C)C)c1	0.1%	-4%	-4	-14%

Record cards (already shown):
O=C(CC(=O)N/N=C/c1c(Cl)cccc1Cl)NCc1cccnc1 across the screens: Rango-impB inh: 0.9%; miR-21 FLuc: -6%; GLA inh pH 4.5: x; Rango dissoc inh: -3%
Cc1cc(C)nc(SCCC(=O)Nc2ccccc2C)n1 across the screens: Rango-impB inh: 1.3%; miR-21 FLuc: -3%; GLA inh pH 4.5: -5; Rango dissoc inh: 4%

Remaining list, next part:
SMILES	Rango-impB inh	miR-21 FLuc	GLA inh pH 4.5	Rango dissoc inh
CCOC(=O)C1=C(O)CSC1=Nc1ccccc1	-0.6%	-9%	10	3%
Cc1c(C#N)c(=O)oc2ccc3ccccc3c12	u	-2%	22	u
COC(=O)c1c(C(=O)OC)c2cccc3cc(-c4ccccc4)c4ccc1c4n32	0.0%	-1%	3	-5%
C=CCNC(=O)c1ccc(Sc2ccccc2)c([N+](=O)[O-])c1	11%	-25%	1	15%
Cc1nc2scc(C)n2c(=O)c1S(=O)(=O)Nc1ccc(N2CCN(C(=O)C(C)C)CC2)cc1	0.0%	1%&18%	x	-5%
CCCCOc1cccc(C(=O)NNC(=S)NC2CCCCC2)c1	0.6%	-2%	-7	-7%
COc1ccc(-c2nn(-c3ccccc3)cc2C(=O)NC2CC2)cc1	1.6%	x	x	1%
COc1ccccc1C(=O)NC(=S)Nc1ccc(N2CCOCC2)c(Cl)c1	1.8%	-11%	7	-3%
O=C(CCN1CCN(S(=O)(=O)c2ccc(Cl)cc2)CC1)Nc1ccc(F)cc1	-1.7%	18%	x	-14%
O=C(NNC(=O)c1ccc(Cl)cc1Cl)c1cccs1	4.1%	-37%	2	5%
O=C(/C=C/c1ccco1)Nc1nc(-c2ccc(F)c(F)c2)cs1	-1.2%	-1%	-1	14%
Cc1ccc2nc(SCC(=O)NC3CCCCC3)nc(=O)n2c1	-1.8%	x	x	2%
CC(C)CCn1c(N2CCCC2)nc2c1c(=O)n(C)c(=O)n2C	-2.9%	-2%	x	17%
CCC(C)(C)NC(=O)C(c1ccc(F)cc1)N(Cc1cccc(OC)c1)C(=O)c1cnccn1 (stereo not given)	0.8%	-3%	-11	0%
CCCCCCC(=O)Nc1c2c(nc3ccccc13)N(C)CC2	5.4%	-6%	25	-10%
CCC(C)Nc1cc(C)nc2ncnn12 (stereo not given)	4.6%	-6%	8	-26%
CS(=O)(=O)N(CC(=O)Nc1ccc2c(c1)OCCO2)Cc1ccc(Cl)cc1	-3.8%	1%	5	-11%
O=C(NC(=S)Nc1ccccc1Br)C1CC1	0.3%	x	x	-10%
Cc1cccc(OCCSc2nc3c([nH]2)c(=N)ncn3Cc2ccccc2)c1	-4.2%	-11%	3	3%
CC(=O)CC(=O)Nc1ncccn1	4.8%	-1%	4	-8%
O=c1cc(CCl)nc(Cc2c(Cl)cccc2Cl)[nH]1	0.1%	x	x	5%
Cc1cc(OCC(=O)C(C)(C)C)c2c(-c3ccccc3)cc(=O)oc2c1	1.5%	-2%	x	9%
CCN(CC)C(=O)Cn1cc(S(=O)(=O)CC(=O)Nc2ccccc2C)c2ccccc21	0.5%	x	x	-2%
Cc1cc(-n2nnc3ccccc32)nc2ccccc12	-0.8%	-20%	-4	0%
CC(=O)Nc1ccc(C(=O)NCCCOC(C)C)cc1	-4.4%	-2%	6	-1%
SMILES	Rango-impB inh	miR-21 FLuc	GLA inh pH 4.5	Rango dissoc inh
COc1ccc(OC(=O)COc2ccc(C)cc2)cc1	-0.3%	-8%	6	38%
CC(C)CN1CCN(C2CCN(C(C)C)CC2)C(CCO)C1 (stereo not given)	x	-1%	-4	x
COc1cccc(OC)c1C(=O)Nc1sc2c(c1C#N)CCC2	0.9%	-3%	x	-14%
CC(C)c1ccc(N(CC(=O)NCCCN2CCOCC2)S(=O)(=O)c2ccccc2)cc1	0.6%	x	x	0%
CC(OC(=O)CCCc1nc2ccccc2s1)C(N)=O (stereo not given)	0.3%	0%	8	15%
Cc1ccc(-n2cccc2/C=C2/C(=N)N3C(=NC2=O)SN=C3S(C)(=O)=O)cc1Cl	u	-10%	-19	-29%
CCOc1ccccc1NC(=O)C1CCCN(S(C)(=O)=O)C1 (stereo not given)	2.0%	2%	x	-9%
Cc1sc2nc(SCc3nc(-c4cccs4)no3)n(-c3ccccc3)c(=O)c2c1C	4.8%	-6%	-1	-6%
CC(C)(C)Sc1ccccc1S(=O)(=O)C(C)(C)C	-3.1%	7%	-9	12%
COc1ccc(N/C(N)=N/c2nc(CSc3nnc(C)s3)cc(=O)[nH]2)cc1	u	18%	-18	-23%
CN1C(=O)/C(=C/c2ccc(OCc3ccccc3F)cc2)NC1=S	u	1%	x	-19%
Cc1nc(C)c(C(=O)N2CCCC(C(=O)c3cc(F)ccc3F)C2)s1 (stereo not given)	-0.4%	-6%	x	5%
CC(C)Cn1c(N)c(C(=O)COC(=O)[C@@H]2CCCN2C(=O)c2cccs2)c(=O)n(C)c1=O	0.1%	-9%	4	-3%
CC(C)C[C@H]1CNC(=S)N1CC1CCCN1C[C@H](Cc1ccc(O)cc1)N1C[C@H](Cc2ccccc2)N(CC2CCCCC2)C1=S (stereo not given in full)	-1.8%	x	x	-13%
COc1ccc(-n2c(SCCC#N)nnc2-c2cc(Cl)ccc2OC)cc1Cl	0.1%	20%	-9	3%

Source: PubChem BioAssay
